# SIAE inh = human SIAE inhibition, primary screen; Q9HAT2; SIAE FP-Rh probe binding, fluorescence polarization; inhibition, % at 9.66 µM; hit rate 0.69% among 370,000;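 active means inhibition above a cutoff: mean of compounds within the control limits plus 3 SD of those, cut at about 17% in these data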;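 further: 0% = plate median of compound wells and 100% = probe without SIAE protein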
# rCAG binder = molecules binding r(CAG) RNA repeats. AID 651821. inhibition, % at 3 µM. hit rate 1.3% among 370,000. r(CAG) RNA repeat, TO-PRO-1 dye displacement fluorescence;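 active means inhibition above the plate cutoff, the mean of all test compounds on that plate plus 3 SD, cut at about 35% in these data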;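 further: 0% = DMSO alone and 100% = 100 µM mitoxantrone as full dye displacement; higher means more dye released from RNA so lower well fluorescence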
# MBD2 DNA inh = blocks human MBD2 binding to methylated DNA; inhibition, % at 4.4 µM; TR-FRET, MBD2 binding to methylated oligonucleotide; hit rate 0.31% among 370,000; AID 686964; in the data active means inhibition above about 13%
# Target sequence (Q9UBB5 whole entry, looked up): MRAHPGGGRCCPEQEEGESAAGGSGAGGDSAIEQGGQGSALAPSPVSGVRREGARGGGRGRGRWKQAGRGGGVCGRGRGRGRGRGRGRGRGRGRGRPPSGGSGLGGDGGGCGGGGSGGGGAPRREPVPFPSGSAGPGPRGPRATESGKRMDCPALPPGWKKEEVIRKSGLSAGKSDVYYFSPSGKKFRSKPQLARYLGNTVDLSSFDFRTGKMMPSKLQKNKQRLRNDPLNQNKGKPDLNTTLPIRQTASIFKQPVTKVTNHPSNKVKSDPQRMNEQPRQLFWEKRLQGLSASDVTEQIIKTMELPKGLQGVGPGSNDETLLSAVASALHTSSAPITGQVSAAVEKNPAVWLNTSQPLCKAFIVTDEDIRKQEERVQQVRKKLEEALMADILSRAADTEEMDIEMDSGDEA
# UHRF1 MBD2 ctr = blocks human UHRF1 binding to methylated DNA; UHRF1 binding to methylated oligo, TR-FRET; inhibition, % at 4.4 µM; hit rate 0.75% among 370,000; AID 687016; in the data active means inhibition above about 21%;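 further: UHRF1 SRA domain binding a hemimethylated CpG hairpin DNA probe; 0% = median of test compound wells and 100% = reference inhibitor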
# mABHD4 FP = ABHD4 (mouse) inhibition, primary FP screen; purified mABHD4, FP-Rh probe fluorescence polarization; AID 720543; inhibition, % at 8.92 µM; hit rate 0.54% among 370,000;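 active means inhibition exceeding the mean over every tested compound plus 3 SD, cut at about 30% in these data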;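 further: 0% = plate median of compound wells and 100% = S159A mutant with DMSO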
# Target sequence (Q8VD66 whole entry, looked up): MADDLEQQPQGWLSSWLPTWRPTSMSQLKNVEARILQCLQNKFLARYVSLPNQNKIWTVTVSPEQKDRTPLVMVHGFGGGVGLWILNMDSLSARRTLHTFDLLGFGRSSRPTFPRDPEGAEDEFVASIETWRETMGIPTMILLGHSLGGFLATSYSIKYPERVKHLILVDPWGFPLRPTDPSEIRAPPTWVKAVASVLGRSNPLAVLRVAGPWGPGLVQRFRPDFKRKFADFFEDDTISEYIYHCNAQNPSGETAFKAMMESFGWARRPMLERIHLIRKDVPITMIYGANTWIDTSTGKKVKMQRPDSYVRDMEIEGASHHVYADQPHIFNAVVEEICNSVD
#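 Assay system: wild-type mouse ABHD4 protein; compound: single nominal dose of 8.92 µM, 0.89% DMSO final; schedule: 45 min + 60 min at 25 °C; measured by: FP readout, ex 525 nm / em 598 nm; evaluation: % inhibition of FP-Rh probe binding versus controls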
# TCR-CD3 inh = human TCR-CD3 binding inhibition; TAMRA-labeled TCR probe fluorescence, biochemical; inhibition, % at 9.4 µM; hit rate 0.37% among 360,000; in the data active means inhibition above about 19%;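 further: recombinant mutant TCR 2C K166C tagged with TAMRA read by polarization; 0% = receptor in buffer alone and 100% = receptor with positive control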
# PRMT1 inh = blocks human protein arginine methyltransferase 1; Q99873; recombinant PRMT1, activity-based probe fluorescence polarization; inhibition, % at 2.79 µM; hit rate 1.3% among 370,000; AID 652257;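 active means inhibition above about 21% made by adding two undisclosed values, limit read from the data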
# GC-B act = GC-B (human) receptor activation | P20594 | HEK293-GC-B cells, CNP EC30, cGMP TR-FRET; 0% at EC30 CNP, 100% saturating CNP | hit rate 0.11% among 370,000 | activation, % at 10 µM;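 active means activation at 10 µM reaching about 35% in either raw or pattern-adjusted values, limit read from the data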
# NPR1 activator = GC-A (human) enzyme activation; HEK293 GC-A cells, cGMP TR-FRET, EC30 ANP; 0% at EC30 ANP, 100% saturating ANP; activation, % at 10 µM; hit rate 0.14% among 370,000; P16066; in the data active means activation above about 40%
# * marks the source's active call; other numbers are inactive results. The list is partial; count on the stated rates, not on these rows.
SMILES,SIAE inh,rCAG binder,MBD2 DNA inh,UHRF1 MBD2 ctr,mABHD4 FP,TCR-CD3 inh,PRMT1 inh,GC-B act,NPR1 activator
Cn1c(C2CC(=O)N(Cc3ccccc3)C2)nc2ccccc21 (stereo not given),-6.6,1.6,-0.2,-0.2,-5.4,4.1,-4.2,2.0,1.7
O=C(CCC1CCCC1)NNC(=O)c1cc2ccccc2cc1O,1.4,33.4,0.8,-1.9,21.7,5.1,16.1,-0.3,-5.9
Brc1ccccc1-c1nnc(SCc2nc3ccccc3s2)o1,-10.4,0.2,4.5,3.4,-13.2,-3.6,2.1,-4.5,3.8
Cc1cc(F)ccc1NC(=O)c1ccc(NS(=O)(=O)c2cccs2)cc1,-0.2,8.0,2.2,-3.3,-3.6,6.9,-2.9,0.5,2.9
CCCCC1=CC2=CC(=O)C(C)(OC(=O)CC)C(=O)C2=CN1CC(C)C (stereo not given),9.6,-1.6,1.9,-4.7,18.4,4.2,3.5,-1.0,1.8
O=S(=O)(Cc1c(F)cccc1Cl)c1ncn[nH]1,5.8,-1.1,-0.7,-1.1,2.4,-0.8,0.9,4.0,-1.0
CC(NC(=O)C12CC3CC(CC(C3)C1)C2)C(=O)NCCN(C)C (stereo not given),-0.1,-2.0,-0.1,-1.2,3.7,1.8,-3.7,10.1,0.3
CCOc1[nH]c(/N=C/c2ccco2)c(C#N)c1C#N,15.4,8.8,-6.0,1.4,17.4,0.6,9.6,2.1,-4.9
CC1=CC(C)(C)N(C(=O)CSc2nnc(N)s2)c2ccccc21,0.1,-2.5,2.1,0.5,2.7,4.1,-1.3,-1.2,-0.4
O=c1c(NCCc2ccccc2)c(-c2ccccc2)c1=O,3.5,0.9,-6.9,0.5,-5.4,1.3,-2.9,2.5,-0.6
O=C(CN1CCN(Cc2ccccc2Cl)C1=O)NC1CCCCCCC1,-5.2,-8.6,0.5,-2.2,-1.4,3.6,-2.0,-1.7,-1.1
CC(=O)N/C(=C\c1ccccc1)C(=O)OC(C)C(=O)NCc1ccccc1 (stereo not given),5.4,1.2,3.6,-2.5,8.3,2.8,-0.5,0.7,1.1
COc1cccc(N2C(=O)C3CCCN3C2=S)c1 (stereo not given),-1.5,4.0,0.7,4.1,-1.2,8.4,16.6,2.5,0.7
CC1CC(C)CN(C(=O)COC(=O)c2ccc(S(=O)(=O)N(C)c3ccccc3)cc2)C1 (stereo not given),-12.7,-1.2,2.0,20.9*,-12.6,-7.5,-2.5,-2.8,-3.5
ON(CCc1ccncc1)Cc1ccccc1,1.5,0.7,6.1,-0.5,4.9,-1.9,13.0,1.5,-3.8
COc1ccccc1NC(=O)C(C)OC(=O)/C(=C/c1ccccc1)NC(C)=O (stereo not given),-3.5,-1.2,-6.2,0.1,-0.7,1.0,0.8,-3.5,-1.4
Cc1onc(-c2ccccc2)c1C(=O)N/N=C/c1ccc([N+](=O)[O-])s1,8.8,13.0,-4.3,2.4,22.6,-0.9,6.7,-4.9,-3.5
CC(C)(C)c1ccc(C(=O)NC(=S)Nc2sc3c(c2C#N)CCC3)cc1,2.9,8.9,5.0,2.2,6.1,-6.1,11.7,9.9,-3.8
CCCCn1c(SCC(N)=O)nc2sc3c(c2c1=O)CCC3,-0.7,7.1,-1.2,5.7,-1.1,1.7,2.8,-4.3,-5.3
COc1cccc2cc(C(=O)CS(=O)(=O)c3ccc(C(C)(C)C)cc3)c(=O)oc12,1.2,38.3*,3.1,1.0,12.6,-9.3,3.5,6.7,-1.9
COc1ccc(-c2nnc(-c3ccc(OCC(C)C)cc3)o2)cc1,11.6,0.0,0.1,-0.1,9.5,-0.4,0.6,6.2,-1.3
Cc1ccc(C(CNS(=O)(=O)c2ccc(Cl)cc2)N2CCN(C)CC2)cc1 (stereo not given),1.8,-5.6,-3.0,-0.1,5.0,4.6,-3.1,-11.9,-8.0
C/C(CC(=O)NCc1ccc(Cl)cc1)=N\NC(=O)COc1ccc(C)cc1Br,5.5,2.6,-2.8,2.6,-3.6,2.2,-1.5,1.1,-3.6
O=S(=O)(Cc1cccc(C(F)(F)F)c1)c1ncn[nH]1,1.0,-0.6,-3.4,-3.5,3.8,-4.2,4.0,1.6,-6.0
Cc1ccc(C(=O)O/N=C(\N)Cc2cccc3ccccc23)cc1,12.3,7.2,-5.5,-6.2,8.0,1.6,8.6,2.4,0.3
Cc1nn(Cc2ccccc2)c(Cl)c1C(=O)OCC#N,2.0,-4.0,0.6,-0.1,-0.1,4.3,6.1,-1.8,6.2
COC(=O)CCSc1nc(N2CCOCC2)c2c(c1C#N)CC(C)(C)OC2,-3.7,2.8,0.2,0.1,-2.5,-8.0,6.8,26.3,24.0
CCOc1ccccc1N1CCN(CC(=O)Nc2nc(C)c(C(=O)N(C)C)s2)CC1,5.5,-8.2,-1.1,-1.9,-1.6,3.9,-1.7,7.9,1.3
Cc1ccc(-n2cc(C(=O)c3ccc(N4CCN(C)CC4)cc3)nn2)cc1Cl,-7.8,-3.9,-4.4,1.4,-0.1,-11.2,4.9,-7.5,-1.7
C/C(=C\C(=O)c1ccccc1)Nc1ccc2c(c1)OCO2,6.4,-1.8,-1.6,-2.8,16.6,-3.0,19.5,-2.8,0.3
O=C(NNC(=O)c1ccccc1O)c1ccc(-c2ccc([N+](=O)[O-])cc2)o1,14.9,29.2,-1.7,-4.1,36.9*,42.0*,1.9,-3.9,-2.8
O=C(Nc1ncc([N+](=O)[O-])s1)c1ccccc1Br,2.9,34.3,-4.3,-0.8,3.8,8.7,-2.7,13.2,-3.8
CCOc1ccccc1NC(=O)CSc1nnc(C2CC2)n1CC,-1.4,-3.9,-0.7,-2.0,2.5,-2.1,1.4,0.2,1.3
CCOC(=O)c1c(C)[nH]c(C)c1C(=O)COC(=O)c1ccccc1O,-1.6,-3.2,-0.8,5.1,3.3,-4.6,2.2,0.5,-0.1
COc1[nH]c(/N=C/c2ccccc2)c(C#N)c1C#N,112.0*,-137.9,-10.7,-6.4,117.8*,135.5*,59.2*,0.3,2.8
O=c1cc(O)nc(SCc2ccccc2Cl)[nH]1,-1.1,9.7,3.1,-1.8,-1.1,1.5,6.6,1.7,3.1
CC1CCC2(CC1)NC(=O)N(Cc1nc(-c3ccccc3)no1)C2=O (stereo not given),-7.8,-0.7,8.0,5.6,-11.8,-4.9,3.7,5.9,-5.4
Cc1ccc(NC(=O)CNC(=O)c2cccc(C)c2)nc1,-6.9,1.5,-1.2,0.8,6.4,3.2,-0.7,1.1,-1.1
CC1(C)Cc2ccccc2C(/C(=N/O)C(N)=O)=N1,2.7,2.7,-1.5,2.5,1.0,-4.6,-2.3,1.9,-1.2
COc1ccc(Br)c(C(=O)OCC(=O)NC(=O)NC2CCCC2)c1,-6.2,0.3,-5.9,-1.9,-3.9,12.4,0.2,1.9,1.6
Cc1ccc(S(=O)(=O)n2nc(OC(=O)c3ccccc3C)cc2N)cc1,-2.3,4.8,-4.2,0.6,-17.8,6.3,-0.2,-1.4,13.1
O=C(CCc1ccccc1)NCCSc1ccccc1,-2.3,-2.8,0.6,-0.7,-3.0,-4.0,1.3,0.6,-3.8
COc1cccc(OC)c1C(=O)NNC(=O)c1ccccc1-n1cccc1,1.4,2.4,4.1,1.1,3.3,-4.0,4.3,-3.0,2.6
Nc1ccc(C(=O)OC2CCOC2=O)cc1[N+](=O)[O-] (stereo not given),-9.6,2.1,-0.5,-3.6,3.3,1.6,-1.8,4.5,5.4
CC1=C(C(=O)Nc2ccccc2)C(c2cccnc2)n2ncnc2N1 (stereo not given),-3.2,4.6,-0.6,3.8,7.1,1.6,0.6,6.9,12.8
O=C(NCCc1c[nH]c2ccccc12)/C(=C\c1cccnc1)NC(=O)c1ccccc1F,4.5,0.2,-0.3,-1.6,0.2,11.2,-1.5,-10.0,3.3
Oc1cc(Nc2ccccc2)cc2cccnc12,5.8,1.0,-3.9,-3.5,6.2,-2.0,0.7,9.4,-0.7
O=C(COC(=O)c1cccnc1Cl)Nc1ccc(S(=O)(=O)N2CCOCC2)cc1,-1.7,0.8,-5.6,18.6,-3.3,9.8,-3.6,4.2,-2.7

# The last 6 records of the part before come first, to join the parts:
SMILES,SIAE inh,rCAG binder,MBD2 DNA inh,UHRF1 MBD2 ctr,mABHD4 FP,TCR-CD3 inh,PRMT1 inh,GC-B act,NPR1 activator
COc1cccc(OC)c1C(=O)NNC(=O)c1ccccc1-n1cccc1,1.4,2.4,4.1,1.1,3.3,-4.0,4.3,-3.0,2.6
Nc1ccc(C(=O)OC2CCOC2=O)cc1[N+](=O)[O-] (stereo not given),-9.6,2.1,-0.5,-3.6,3.3,1.6,-1.8,4.5,5.4
CC1=C(C(=O)Nc2ccccc2)C(c2cccnc2)n2ncnc2N1 (stereo not given),-3.2,4.6,-0.6,3.8,7.1,1.6,0.6,6.9,12.8
O=C(NCCc1c[nH]c2ccccc12)/C(=C\c1cccnc1)NC(=O)c1ccccc1F,4.5,0.2,-0.3,-1.6,0.2,11.2,-1.5,-10.0,3.3
Oc1cc(Nc2ccccc2)cc2cccnc12,5.8,1.0,-3.9,-3.5,6.2,-2.0,0.7,9.4,-0.7
O=C(COC(=O)c1cccnc1Cl)Nc1ccc(S(=O)(=O)N2CCOCC2)cc1,-1.7,0.8,-5.6,18.6,-3.3,9.8,-3.6,4.2,-2.7
Cc1cc(C)n(-c2nncn2NC(=O)c2ccc(Cl)cc2O)n1,-2.6,12.5,1.5,5.0,2.8,2.5,0.7,-1.1,-1.7
Cc1cccc(C(=O)NNC(=O)c2ccc(O)cc2)c1,11.0,-0.9,-5.0,-4.0,5.8,-5.3,-1.3,6.2,0.4
O=C(NNC(=O)c1ccccc1F)c1ccc(-c2ccc(Cl)cc2)o1,2.4,3.0,-4.2,-3.4,-8.4,2.5,-2.1,-0.6,0.5
COc1ccc(/C=C2\SC(=O)N(CC(=O)Nc3ccccc3O)C2=O)cc1OC,-7.0,21.8,-4.3,-1.6,-6.1,7.0,9.1,2.0,5.3
N#CC(c1ccccn1)(c1ncc(C(F)(F)F)cc1Cl)N1CCOCC1 (stereo not given),-3.2,-0.6,-0.3,-1.4,-1.2,-3.7,1.3,5.8,1.8
CC(=O)Nc1ccc(NC(=S)Nc2ccc(F)cc2)cc1,-2.3,-0.7,11.1,3.9,1.2,-8.4,1.9,-2.5,1.2
CN1CCNC(=O)C1CC(=O)NCCc1ccccc1F (stereo not given),-0.5,0.7,1.1,0.7,-2.0,-0.1,-4.1,-3.5,-6.0
O=C(COC(=O)c1cccnc1Cl)NC(=O)NC1CCCCC1,4.0,1.0,-7.8,1.1,-0.1,-2.6,-2.3,-0.1,1.6
CC(=O)N1CCN(CC(C)(C)NS(=O)(=O)c2ccccc2)CC1,-3.3,-1.1,-0.6,0.4,1.1,-9.2,1.4,-6.9,0.9
CC(=O)Nc1ccc(NC(=O)c2c(C)nn(Cc3ccccc3Cl)c2C)cc1,0.5,-2.4,0.5,-1.4,-5.7,8.9,-1.4,2.4,-3.8
Cc1cccc(NC(=S)NNC(=O)c2ccc(O)cc2O)c1C,2.9,-1.7,0.4,0.6,12.4,52.1*,3.8,0.6,2.0
COc1ccc(OC)c(CN(CCCN2CCOCC2)S(=O)(=O)c2ccc(NC(C)=O)cc2)c1,-0.4,-5.8,4.5,-0.5,-1.6,1.0,-2.2,2.3,0.0
O=C(c1ccco1)N1CCN(C(=O)C2CC(=O)N(c3ccc(Cl)cc3)C2)CC1 (stereo not given),2.7,1.5,0.3,-0.8,-8.6,12.0,-1.9,0.8,0.4
COc1cccc(N/C(C)=C/C(=O)c2ccc(Br)cc2)c1,-0.2,-0.6,1.1,-0.8,5.3,4.8,0.5,1.5,0.5
Cn1nccc1C(=O)NC(=S)Nc1sc2c(c1C#N)CCCCC2,-4.9,1.0,-1.2,0.6,0.9,3.8,2.8,-0.1,0.2
